RE007 growth inh – less growth of the S. pombe RE007 Vpr strain; S. pombe RE007 Vpr strain, BacTiter-Glo ATP luminescence, 24 h; control for the full effect not named in the record; Potency, µM (doses to about 92.2 µM), for inactives: at the top dose activity change, negative = less growth; 360,000 tested, 0.21% active; AID 651644; active = well fitted falling curve with a large enough effect; inconclusive = small, poorly fitted or top-dose-only effect; inactive = no such curve, though single readings can be large or run the other way;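 also: % is scaled to controls: 0 for no effect and ±100 for the full control effect; nearly all actives have a fitted effect of over 50% in size; the assay follows cell death caused by Vpr and the record does not say whether a fall means rescue or toxicity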
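Fission yeast RE007 carrying one integrated HIV-1 vpr copy, seeded at OD 0.01 in PMG+AL medium with 23 nL pinned compound. Grown 24 h at 30 degrees; viability read by BacTiter-Glo luminescence after 5 min.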
SARS PLpro yeast – inhibitors of SARS-CoV papain-like protease in yeast; S. cerevisiae expressing SARS-CoV PLpro, growth rescue; control for the full effect not named in the record; 330,000 tested, 0.19% active; AID 485353; Potency, µM (titrated, usually from 32.9 µM), for the others: at the highest dose activity, positive = growth rescue; active means well fitted rising curve with a large enough effect; inconclusive means small, poorly fitted or top-dose-only effect; inactive means no such curve, though single readings can be large or run the other way; also: 0% is about no effect; nearly all actives have a fitted effect of over 55% in size; growth read by luminescence after 48 h
NS1 inh – influenza NS1 inhibition | S. cerevisiae slowed by influenza A NS1, growth recovery by OD600 | Potency, µM (doses to about 46.1 µM), without a hit: at the top dose activity, positive = more growth | 270,000 tested, 0.4% active | AID 2326; active means well fitted rising curve with a large enough effect; inconclusive means small, poorly fitted or top-dose-only effect; inactive means no such curve, though single readings can be large or run the other way; also: nearly all actives have a fitted effect of over 50% in size
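S. cerevisiae expressing influenza A NS1, grown in glucose, washed, then diluted 1:100 into pH 6.0 -URA galactose medium with 23 nl compound. Growth recovery read as OD600; NS1-free strain serves as control.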
Cruzain noTriton – blocks cruzain activity in detergent-free assay; P25779; purified cruzain, Z-FR-AMC fluorescence, no detergent; Potency, µM, without a hit: max response, negative = inhibition, hits mostly inhibitors; AID 1476; 200,000 tested, 2.3% active;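 also: plate controls were enzyme without inhibitor for no effect and buffer without enzyme for full effect; nearly all actives have a fitted effect of over 40% in size; top concentration of the series not given in the record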
Target sequence (P25779 123-467 limits assumed): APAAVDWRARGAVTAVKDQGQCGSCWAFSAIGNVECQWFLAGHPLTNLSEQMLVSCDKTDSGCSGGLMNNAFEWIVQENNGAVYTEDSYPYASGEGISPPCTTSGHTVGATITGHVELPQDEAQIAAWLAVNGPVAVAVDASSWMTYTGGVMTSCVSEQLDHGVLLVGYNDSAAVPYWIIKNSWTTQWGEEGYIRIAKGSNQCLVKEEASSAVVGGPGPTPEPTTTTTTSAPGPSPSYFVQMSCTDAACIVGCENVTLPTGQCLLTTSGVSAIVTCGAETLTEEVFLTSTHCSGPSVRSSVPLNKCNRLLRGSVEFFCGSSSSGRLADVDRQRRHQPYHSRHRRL
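Purified cruzain at 1.5 nM, pre-incubated 15 min with compound at room temperature in 100 mM sodium acetate pH 5.5, 5 mM DTT, 0.00005% Triton X-100. Reaction started with 2 uM Z-FR-AMC; AMC fluorescence increase over 60 s gives rate.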
Cruzain inh Det – inhibitors of Trypanosoma cruzi cruzain with detergent; P25779; purified cruzain, Z-FR-AMC fluorescence, 0.01% Triton; Potency, µM, for the others: max response, negative = inhibition, actives largely listed as inhibitors; 200,000 tested, 0.43% active;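 also: plate controls were neutral wells for no effect and buffer without enzyme for full effect; nearly all actives have a fitted effect of over 40% in size; top concentration of the series not given in the record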
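Read-out: AMC fluorescence (360 nm excitation, 450 nm emission), four reads over 2 min, first-to-third difference used. Conditions: cruzain 1.5 nM, Z-FR-AMC 2 uM, pH 5.5 acetate, 5 mM DTT, 0.01% Triton X-100.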
Lassa entry inh – Lassa virus entry inhibition. Lassa virus pseudotype entry inhibition, cell reporter; control for the full effect not named in the record. AID 540256. 300,000 tested, 1.2% active. Potency, µM (doses to about 37.9 µM), for inactives: top-dose activity change, negative = inhibition, most hits filed as inhibitors; active means well fitted inhibition curve with a large enough effect; inconclusive means small, poorly fitted or top-dose-only effect, or effect the other way; inactive means flat fitted curve, though single readings scatter; tested in HEK293 cells; also: % is scaled to controls: 0 for no effect and ±100 for the full control effect; nearly all actives have a fitted effect of over 50% in size; luciferase read-out
2A StopGo – FMDV 2A StopGo reporter, luciferase signal. human cells with a luciferase reporter of 2A StopGo recoding; control for the full effect not named in the record. Potency, µM (titrated, usually from 57.9 µM), without a hit: top-dose signal change, negative = less light. 410,000 tested, 1.2% active. AID 1159524; active = well fitted falling curve with a large enough effect; inconclusive = small, poorly fitted or top-dose-only effect; inactive = no such curve, though single readings can be large or run the other way; tested in HEK293T cells; also: % is scaled to controls: 0 for no effect and ±100 for the full control effect; nearly all actives have a fitted effect of over 45% in size; luciferase light after 4 h
Marburg entry inh – inhibitors of Marburg virus binding or cell entry. Marburg virus pseudotyped entry inhibition, cell reporter; control for the full effect not named in the record; about a third of the inactives were read at about 46 µM. Potency, µM (doses to about 37.8 µM), for inactives: at the top dose activity change, negative = inhibition, most hits filed as inhibitors. 300,000 tested, 1.8% active. AID 540276; active = well fitted inhibition curve with a large enough effect; inconclusive = small, poorly fitted or top-dose-only effect, or effect the other way; inactive = flat fitted curve, though single readings scatter; tested in HEK293 cells; about a fifth of its hits are not listed in these tables; also: % is scaled to controls: 0 for no effect and ±100 for the full control effect; luciferase read-out
Numbers without * were called inactive; ? = inconclusive; · = not tested or not shown; & = joins results of further samples; [ ] = another dose, or the depositor's remark. Unless noted, calls follow the shape of the dose curve; as a rule, active = well fitted curve in the direction sought with a large enough effect; inconclusive = small, poorly fitted or top-dose-only effect, or another doubt; inactive = no such curve, though single readings can be large; an effect the other way counts as inactive or inconclusive. Potency is read from the fitted curve at half-maximal effect. Outcome played no part in choosing rows. Share with any hit: about 4.5%.

SMILES | RE007 growth inh | SARS PLpro yeast | NS1 inh | Cruzain noTriton | Cruzain inh Det | Lassa entry inh | 2A StopGo | Marburg entry inh
CCC1Oc2ccccc2N(CC(=O)Nc2ccc(OC)cc2OC)C1=O (configuration not stated) | 6% | 1% | -5% | -2% | 1.0% | 3% | 21% | -5%
COc1cc(OC)c(N(C)C(=O)Cn2ncc3c(=O)oc4ccccc4c32)cc1Cl | · | · | · | -10% | -0.7% | ? | -4% | 5%[46.1 µM]
CCc1ccccc1NC(=O)Cn1c(=O)n(Cc2ccccc2)c(=O)c2c(C)c(C(=O)N(C)C)sc21 | · | · | · | ? | 0.6% | 12%[46.1 µM] | -19% | ·
CN(CC(O)CN1CCOCC1)S(=O)(=O)O (configuration not stated) | 16%&-3% | 0%&5% | -2% | · | · | 17% | -9%&4% | 0%&0%[46.1 µM]
COc1ccc(NC(=O)CN(c2ccc([N+](=O)[O-])cc2)S(=O)(=O)c2ccccc2)c(OC)c1 | 7% | 6% | 25% | -5% | -4.2% | -23% | 5% | -22%
CCc1sc(C(=O)Nc2ccc(F)cc2C)cc1C | 11% | -48% | -24% | -2% | -1.5% | ? | 35%[activator] | 28%
CCOc1ccccc1NC(=O)CSc1nc2c(sc3ccccc32)c(=O)n1CCCC(=O)NC1CCCC1 | · | · | · | 2% | 3.5% | 3%[46.1 µM] | 2% | -2%[46.1 µM]
COc1ccc(Cc2nnc(NC(=O)Nc3cccc(OC)c3)s2)cc1 | 8% | -1% | 4% | · | · | -28% | -7% | -1%
CCCc1nc(SCC(N)=O)[nH]c(=O)c1CC | 10% | 3% | 6% | -17% | 9.1% | 18% | 12% | 4%
CN1C(C(=O)NCc2ccc(OC(F)(F)F)cc2)CC2Cn3c(nc4cc5ccccc5cc43)C21 (configuration not stated) | -13% | -4% | 5% | · | · | · | -28% | ·
Cc1ccc(NC(=O)COc2ccccc2C=O)cc1Cl | 0% | -2% | -8% | · | · | ? | -16% | ?
Cc1ccc(Nc2nnc(SCC(=O)NCCN3C(=O)CSC3=O)s2)cc1 | -6% | -7% | -1% | 5% | -3.3% | ? | 24% | -3%
Cc1ccc(N(C(=O)c2csnn2)C(C(=O)NC2CCCCC2)c2cccnc2)c(C)c1 (configuration not stated) | -12% | 6% | 8% | · | · | · | 1% | ?
Cc1cccc(CSC2=NN3CCCC(=O)N=C3S2)c1 | ? | -28% | -4% | 8% | -1.4% | ? | 4% | 2%
COc1ccccc1NC(=O)[C@H](COCc1ccccc1)NC(=O)OC(C)(C)C | 20% | -5% | -10% | -11% | 0.4% | -19% | -14% | -26%
CN(C)CCCCOc1ccccc1F | 3% | 1% | 2% | · | · | 10% | 4% | 7%[46.1 µM]
CCc1ccc(NC(=O)Cn2c(=O)n(CCCC(=O)NCc3ccccc3OC)c(=O)c3ccccc32)cc1 | · | · | · | -11% | -1.4% | 7%[46.1 µM] | -2% | ?
COc1ccc(OC)c(NC(=O)CSc2nnc(N)s2)c1 | -2% | 0% | -2% | 6% | 1.9% | -1% | 11% | -12%
Nc1nc(-c2ccccc2)nn1S(=O)(=O)c1ccccc1 | 5% | -1% | -3% | · | · | · | -12% | ·
CCOC(=O)N1CCN(Cc2cn[nH]c2-c2ccc(-c3ccccc3)cc2)CC1 | -5% | -1% | -4% | · | · | 8%[46.1 µM] | 0% | -16%[46.1 µM]
CCCCn1c(N)c(N(CC(C)C)C(=O)C(C)SCc2nc3sc(C)c(C)c3c(=O)[nH]2)c(=O)[nH]c1=O (configuration not stated) | 2% | 2% | · | · | · | 0% | -11% | 21%
Cc1ccc(Cc2nnc(SCC(=O)Nc3c(C)cccc3C)[nH]c2=O)cc1 | -28% | -3% | · | · | · | 10% | ? | -8%
O=C(/C=C/c1c(F)cccc1Cl)Nc1cccnc1 | -17% | -5% | -79% | · | · | · | 75%[activator] | ·
Cc1cc(C(=O)c2ccc(Cl)cc2)c(NC(=O)CCl)s1 | -1% | 3% | -34% | -10% | -1.4% | -3% | 25µM* | ?
C=CCN=c1scc(-c2ccc(F)cc2)n1/N=C/c1ccccn1 | -16% | -2% | -17% | -16% | -5.2% | ? | 0% | ?

(continued)
SMILES | RE007 growth inh | SARS PLpro yeast | NS1 inh | Cruzain noTriton | Cruzain inh Det | Lassa entry inh | 2A StopGo | Marburg entry inh
Cc1nc(NC(=O)c2ccc(Br)s2)sc1C(=O)N(C)C | 9% | -5% | -1% | -1% | 1.4% | 91%[14.3 µM] | 90%[activator] | ?
N#Cc1ccc(CN2CCN(C(=O)c3cccc(S(=O)(=O)N4CCCCCC4)c3)CC2)cc1 | -10% | -2% | · | · | · | -25% | ? | -12%
COc1cc(C(=O)NNC(=O)c2ccc(S(=O)(=O)N3CCCCC3)cc2)cc(OC)c1OC | 16% | 17% | -2% | 1% | -2.2% | 7% | -17% | 4%
Cc1ccc(CC(=O)O/N=C(\N)c2ccccn2)cc1 | -2% | -7% | -9% | · | · | · | 34%[activator] | ·
CC(=O)NC1CC2CCCC(C1)N2Cc1ccc(C)cc1 (configuration not stated) | -2% | 1% | 20% | · | · | · | -10% | ·
COc1cc(C(=O)OCC(=O)NCCC2=CCCCC2)ccc1OCC(C)C | 12% | -11% | · | · | · | ? | -17% | -3%
c1ccc(-c2[nH]ncc2CN2CCN(Cc3ccc4c(c3)OCO4)CC2)cc1 | -28% | -1% | 0% | · | · | 0% | -10% | ?
COc1ccc(-c2[nH]c(-c3ccc(Cl)cc3)nc2SCC(=O)NCC2CCCO2)cc1 (configuration not stated) | · | · | · | -1% | -9.9% | -12%[46.1 µM] | 8% | -25%[46.1 µM]
Cc1ccc(S(=O)(=O)N2CCN(C(=O)COC(=O)/C=C/c3ccccc3F)CC2)c(C)c1 | -5% | 4% | · | · | · | 6% | -6% | ?
COc1ccc(-n2cc(CN3CCCC3)c(-c3cccc(F)c3)n2)cc1 | -1% | 0% | 1% | · | · | -21% | -1% | ?
COc1ccc(N2CCN(C(=O)c3ccc(Oc4ccc(C(F)(F)F)cn4)cc3)CC2)cc1 | -18% | 0% | 18% | ? | -7.0% | -14% | ? | -27%
O=C(NC(Cc1ccccc1)C(=O)O)c1ccc(S(=O)(=O)N2CCOCC2)cc1 (configuration not stated) | -9% | -3% | 9% | -4% | -2.5% | 5% | -10% | 2%
CC(C)(C)c1cc(C(C)(C)C)c2oc(=O)c(-c3nc4ccc(C(=O)O)cc4[nH]3)cc2c1 | · | 1% | · | 28% | -17% | -1%[46.1 µM] | -21% | ·
COc1ccc(CNc2ncnc3sccc23)cc1 | 5% | -19% | -58% | · | · | -29% | ? | ?
N#C/C(=C(/O)CSc1n[nH]c(N)n1)c1nc2ccccc2[nH]1 | 0% | 0% | -54% | · | · | · | 16% | ·
CC1=C(C(=O)OCc2ccc3c(c2)OCO3)C(c2ccc(O)c([N+](=O)[O-])c2)NC(=O)N1 (configuration not stated) | 7% | 0% | · | · | · | -5% | -26% | -1%[46.1 µM]
Cc1cc(N2CCOCC2)nc(N)n1 | -9% | -3% | · | · | · | -16% | -19% | ·
CCCCNc1c2c(nc3c(-c4ccccc4)c(C)nn13)CCC2 | -25% | 12% | -8% | 7.9µM* | -12% | 3% | -3% | 0%
O=C(NCc1cccnc1)c1noc2c1CCCC2 | ? | 4% | 3% | 7% | 1.5% | 38%[14.3 µM] | -3% | 7%
COC(=O)c1ccccc1OCCOCCOc1cccc2cccnc12 | -5% | -6% | -5% | -5% | 4.1% | 2% | -19% | -3%
CCC(C)(C)NC(=O)c1cc([N+](=O)[O-])ccc1N1CCOCC1 | 3% | 11% | 2% | -1% | -5.4% | 14% | -13% | 19%
Cc1ccccc1NC(=O)Nc1cc(S(N)(=O)=O)ccc1C | -11% | 4% | ? | 2% | 9.4% | -16% | · | 4%
COc1ccc(CCCNC(=O)C2CCC(=O)N(CCCN3CCCC3=O)C2)cc1 (configuration not stated) | 0% | 3% | 7% | · | · | · | 4% | ·
CCC1CCCCN1C(=O)CCNC(=O)Cn1cnc2ccccc2c1=O (configuration not stated) | -4% | 1% | 16% | · | · | ? | -14% | -12%[46.1 µM]
Cc1ccc(S(=O)(=O)N2CCCc3cc(NS(=O)(=O)c4ccccc4)ccc32)cc1 | · | · | · | -23% | -4.3% | 10µM* | 1% | ·

(list continues)
SMILES | RE007 growth inh | SARS PLpro yeast | NS1 inh | Cruzain noTriton | Cruzain inh Det | Lassa entry inh | 2A StopGo | Marburg entry inh
Cc1cccc(OCC(=O)Nc2nnc(S(=O)(=O)N3CCC(C)CC3)s2)c1 | 16% | -1% | 0% | · | · | · | -20% | ·
COCCCNC(=O)Cn1nnc(-c2ccc(NC(=O)c3ccc(F)cc3)cc2)n1 | -10% | -1% | 14% | 28% | -0.2% | 0% | · | 11%
Cc1nc(-c2nc(-c3c(C(=O)NNC(=O)Nc4ccccc4)noc3C)cs2)cs1 | 10% | -1% | 0% | · | · | · | -4% | ·
CCc1nc(N[C@H](C(=O)O)C(C)CC)c2oc3ccccc3c2n1 (some centres not stated) | 14% | -7% | 25% | -6% | -6.0% | -12% | 21% | 6%
Cc1ccc(NC(=O)NCCCl)cc1S(=O)(=O)N1CCOCC1 | 8% | 0% | 3% | · | · | · | 21% | ·
Cc1nc2cc(S(=O)(=O)C(F)(F)F)ccc2s1 | 2% | ? | -7% | -4% | -2.2% | 25% | -17% | -10%
O=C(/C=C/c1ccccc1)N1CCN(c2ccccn2)CC1 | -21% | 5% | -12% | 2% | -1.7% | 12% | 28% | 0%
Cc1ccc2nc(Cl)c(/C=N/Nc3ccc(C(=O)O)cc3)cc2c1 | -13% | -2% | 1% | · | · | · | -27% | ·
CCn1nccc1C(=O)Nc1ccccc1OC | 2% | 4% | -11% | · | · | 18% | 10% | -22%
O=C(Nc1cc(Cl)ccc1Cl)c1ccco1 | -5% | 2% | -25% | · | · | -3% | 26% | 10%
